# High-throughput results as filed in PubChem.
# Rango dissoc inh: inhibition of RanGTP-driven Rango-importin beta dissociation. AID 540253. 340,000 tested, 0.071% active. O95149+P62826. Potency, µM (series often up to 46.1 µM), without a hit: at the top dose activity change, negative = inhibition. Biochemical FRET Rango-importin beta, RanGTP-induced dissociation; active means falling FRET ratio curve, often poorly fitted, with flat reads before Ran was added; inconclusive means other falling curves, or compound fluorescence or quenching; inactive means flat or rising ratio curve;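 note: potency is the fitted concentration of half-maximal effect; % of control where 0% means no effect; nearly all actives have a fitted effect of over 45% in size; -100% = wells without RanGTP and RCC1; the record marks most hits as doubtful in a second field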
#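 FRET read at 45 min, room temperature: inhibitors block the CFP/YFP signal rise when RanGTP (0.6 uM Ran, 2 mM GTP, 0.2 uM RCC1) frees Rango (0.1 uM) from importin beta (0.25 uM). Pre-read after 5 min compound exposure flags interference.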
# miR-21 reporter: miR-21 reporter, rising signal; Potency, µM (titrated, usually from 38.3 µM), for inactives: at the highest dose reporter change, positive = more light; 340,000 tested, under 10 active; AID 2288; HeLa miR-21 FLuc reporter, luciferase, 48 h; active = well fitted rising curve with a large enough effect; inconclusive = small, poorly fitted or top-dose-only effect; inactive = no such curve, though single readings can be large or run the other way;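 note: % of control where 0% means no effect; miR-21 action dims this reporter so a rising signal means less miR-21 action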
#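 HeLa miR-21-FLuc reporter line, endogenous miR-21; 2000 cells/well in DMEM/10% FBS; compound titration up to ~40uM final, 48 h, 37 degree Celsius; luciferase detection reagent, 15 min lysis, CCD luminescence.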
# GLA inh pH 4.5: blocks human alpha-galactosidase A at pH 4.5. purified enzyme, 4-MU-alpha-Gal fluorescence, pH 4.5. activity change, negative = inhibition, % at 105 µM. 230,000 tested, under 10 active; inconclusive = small, poorly fitted or top-dose-only inhibition, or a rising curve; inactive = flat fitted curve, though single readings scatter; no compound was filed as active;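 note: 0% = full activity with enzyme and -100% = basal without enzyme; dose as in the result columns while the protocol names 77 µM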
# Target sequence (P06280 whole entry, looked up): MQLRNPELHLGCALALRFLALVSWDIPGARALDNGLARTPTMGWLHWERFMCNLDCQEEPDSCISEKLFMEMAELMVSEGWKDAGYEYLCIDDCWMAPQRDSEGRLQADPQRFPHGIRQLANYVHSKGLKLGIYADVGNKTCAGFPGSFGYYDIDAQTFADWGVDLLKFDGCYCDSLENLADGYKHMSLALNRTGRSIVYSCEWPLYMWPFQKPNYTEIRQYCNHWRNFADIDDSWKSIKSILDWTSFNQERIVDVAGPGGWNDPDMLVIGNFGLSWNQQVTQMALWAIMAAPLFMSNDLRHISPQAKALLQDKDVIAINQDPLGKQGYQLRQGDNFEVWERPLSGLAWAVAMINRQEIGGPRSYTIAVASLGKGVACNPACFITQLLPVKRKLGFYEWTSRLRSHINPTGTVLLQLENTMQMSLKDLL
# Rango-impB inh: inhibitors of Rango-importin beta complex formation; Q14974; Rango CFP/YFP FRET sensor + importin beta, 45 min; Potency, µM (doses to about 92.2 µM), without a hit: at the top dose inhibition of complex formation; 340,000 tested, 0.031% active; AID 540263; active = rising FRET ratio curve, often small or poorly fitted; inconclusive = mostly compound fluorescence or quenching in the first reads; inactive = flat curves in all reads;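 note: potency is the fitted concentration of half-maximal effect; 0% = DMSO wells and 100% = buffer wells lacking importin beta; nearly all actives have a fitted effect of over 15% in size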
#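 Inhibition scored from the CFP 486 nm/YFP 530 nm FRET ratio 45 min after adding 0.125 microM importin beta to 50 nM Rango biosensor preincubated 5 min with compound (room temperature, PBS with DTT, Tween-20, BSA). No-importin wells as positive control.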
# The depositor's hits bear a star; ? = inconclusive; / = not tested or not shown; & = joins results of further samples.
SMILES,Rango dissoc inh,miR-21 reporter,GLA inh pH 4.5,Rango-impB inh
COc1cccc(OCc2cc(C(=O)N3C[C@H]4C[C@@H](C3)c3cccc(=O)n3C4)no2)c1,8%,-51%,/,2.8%
COc1ccccc1N1CCN(Cc2ccccc2)CC1,1%,-4%,/,0.1%
CC(C)c1ccc(-n2c(O)c(C=NC(CCS(C)=O)C(=O)O)c(=O)[nH]c2=S)cc1 (configuration not stated),-10%,-2%,-1,?
O=C(CN1CCCCC1)Nc1ccc(Br)cc1C(=O)c1ccccc1Cl,-7%,-3%,-11,1.8%
CCOC(=O)c1cn2nc(OP(=S)(OCC)OCC)cc2nc1C,0%,-15%,1,-3.2%
CC(=O)c1cccc(NC2=NCC(C)S2)c1 (configuration not stated),-4%,-14%,0,-3.1%
O=c1[nH]c(=S)n(-c2ccccc2)c(O)c1C=NCCN1CCNCC1,8%,1%,/,-1.1%
CCN(CC)C(=O)c1ccc(NC(=O)c2cccc(S(=O)(=O)N3CCN(Cc4ccccc4)CC3)c2)cc1,18%,/,/,?
Cc1ccc(-n2c(-c3ccc([N+](=O)[O-])cc3)nc3ccccc3c2=O)cc1,3%,0%,4,-1.7%
CC1C2Cn3c(nc4ccccc43)C1N(C)O2 (configuration not stated),17%,-2%,5,-1.1%
CCN1CCN(C(=O)COc2ccc(S(=O)(=O)N3CCOCC3)cc2C)CC1,-8%,-4%,/,-0.7%
OC(c1ccccc1)(c1ccccc1)C1CCCN1 (configuration not stated),19%,-48%,-20,3.9%
COc1ccc(Cn2c(O)c(/C=C3/C=CC=N3)c(=O)[nH]c2=O)cc1,?,-3%,2,?
O=c1cccc2n1CC1CC2CN(C(c2cccc(F)c2)c2sc3ncnn3c2O)C1 (configuration not stated),0%,-1%,-1,-0.9%
CCC(=O)c1ccc(OCC(=O)N2CCN(CC(=O)Nc3ccccc3C(F)(F)F)CC2)cc1,22%,/,/,1.5%
N#Cc1ccc(N2CCNCC2)c(F)c1,-2%,7%,2,4.0%
Cc1ccsc1/C=C1\C(=O)NC(=S)N(C)C1=O,-6%,-9%,/,?
O=c1[nH]c(=O)n(Cc2ccco2)c(O)c1C=NC1CC1,-4%,1%,1,0.3%
CC(C)CN1CCN(Cc2c(F)cccc2Cl)CC1CCO (configuration not stated),0%,-3%,-2,-3.4%
CC(=O)Nc1ccc(C(=O)C(Cc2ccccc2)N(C)C)cc1 (configuration not stated),-7%,-6%,/,?
CCN(CC)CCCN=C(C)c1c(O)n(-c2ccccc2)c(=O)[nH]c1=O,-3%,-1%,-7,0.1%
CCOC(=O)C1CCN(/C=C2\C(=O)NC(=S)N(CC)C2=O)CC1,8%,-1%,6,-0.3%
COc1cc2c(cc1OC)C13CCN4CC5CCOC6CC(=O)N2C1C6C5CC43 (configuration not stated),10%,/,/,1.2%
Cn1cnc(CCN)c1,0%,/,0,-3.4%
COc1ccc(CN2C(=O)CC(=O)NC2=S)cc1,3%,-3%,5,1.6%
COc1ccccc1Oc1c(C)oc2cc(OC(=O)N(C)C)ccc2c1=O,6%,-7%,/,0.3%
c1cncc(C2CCCCN2Cc2ccc3c(c2)OCO3)c1 (configuration not stated),-4%,-23%,7,-0.6%
Cc1cc(OCC(=O)N2C[C@H]3C[C@@H](C2)c2cccc(=O)n2C3)c2c(C)c(C)c(=O)oc2c1,-3%,-3%,/,-1.4%
CN1C(=O)C(Cc2ccc3c(c2)OCO3)C(=O)N(C)C1=O,/,-10%,-2,/
CCC(=NC(C)c1ccccc1)c1c(O)[nH]c(=O)[nH]c1=O (configuration not stated),15%,-29%,5,-0.7%
N=C1/C(=C/c2ccc(OC(=O)c3ccco3)cc2)C(=O)N=C2SC=CN12,?,1%,2,?
O=CC(Br)P(=O)(N1CCOCC1)N1CCOCC1 (configuration not stated),7%,2%,3,-3.4%
Cc1ccc(S(=O)(=O)N(c2cc(Cl)c(O)c(Cl)c2)P(=O)(OC(C)C)OC(C)C)cc1,-9%,-4%,1,-3.0%
Cc1ccc(S(=O)(=O)N(C)C[C@H]2Oc3c(NC(=O)Nc4cccc5ccccc45)cccc3C(=O)N([C@@H](C)CO)C[C@@H]2C)cc1,20%,/,/,-1.5%
COc1cc(C(=O)Nc2ccc(Br)cc2C(=O)c2ccccc2)cc(OC)c1OC,-1%,-3%,4,-1.0%
CCC(=Nc1ccc(OC)cc1OC)c1c(O)n(C2CCCCC2)c(=O)[nH]c1=O,12%,-2%,-5,0.4%
CCOP(=O)(OCC)C1(O)C(=O)Nc2ccccc21 (configuration not stated),16%,0%,-8,?
C[C@@H]1O[C@@H](Oc2c(-c3ccc(O)c(O)c3)oc3cc(O)cc(O)c3c2=O)[C@H](O)[C@H](O)[C@H]1O,-23%&-17%,/,/,?
O=Cc1cn(Cc2ccccc2F)c2ccccc12,-9%,8%,7,7.7%
CCCNC(=O)N1[C@H]2CC[C@@H]1C(C(=O)OC)=C(c1cc3ccccc3s1)C2,1%,/,/,6.2%
Cc1nn(Cc2ccccc2Cl)c(C)c1C(=O)NC1CCCc2ccccc21 (configuration not stated),11%,-8%,6,-3.2%
CSc1nnc([C@@H](N)Cc2ccccc2)o1,-17%,-3%,-4,0.8%
O=C(CCCOc1ccc(Cl)cc1Cl)N1CCC2(CC1)OCCO2,16%,-42%,-3,8.2%
Cc1nc2ccccc2c(=O)n1-c1cccc([N+](=O)[O-])c1,-4%,-9%,/,-1.7%
c1cncc(C2CCCCN2)c1 (configuration not stated),15%,-3%,0&1,0.1%
CCc1ccc(/C=C(/C#N)C(N)=S)cc1,-9%,-5%,-1,2.2%
CCOC(=O)C1(CCOc2ccccc2)CCN(C(C)CSC)CC1 (configuration not stated),-13%,3%,/,-2.6%
O=C(NC1CCCCC1)N1Cc2ccccc2-n2nncc2C1,-9%,/,/,0.3%
O=C1NC(=O)C(=Cc2ccc(-c3ccc(S(=O)(=O)N4CCOCC4)cc3)o2)C(=O)N1,-8%,-1%,/,0.1%
CCC(C)n1c(C)cc(C(N)=O)c1C (configuration not stated),2%,-3%,7,-1.1%
CCn1c(=O)cc(OCC(=O)N2CCN(Cc3ccc4c(c3)OCO4)CC2)c2ccccc21,6%,0%,5,1.7%
O=c1c2ccccc2nc(-c2ccco2)n1-c1ccc(Br)cc1,6%,1%,-1,-3.2%
O=C1/C(=C/c2ccc3c(c2)OCO3)N2CCC1CC2,-13%,3%,2,-0.2%
O=C(CN1CC(c2ccccc2)CC1=O)Nc1ccc(F)cc1 (configuration not stated),-1%,-5%,-1,0.2%
Cc1nn(Cc2ccccc2)c(Cl)c1C(=O)NC1CCCc2ccccc21 (configuration not stated),16%,-10%,4,-0.8%
COc1ccccc1N(CC(=O)NC1CCCC1)C(=O)c1cnn(C(C)C)c1,0%,-53%,3,-0.4%
COc1ccc(-c2cc(-c3ccccc3)[n+](C)c(-c3ccccc3)c2)cc1,18%,?,-14,-4.2%
COc1cc(C=C2C(=O)NC(=O)NC2=O)ccc1OCc1ccc([N+](=O)[O-])cc1,-3%,-50%,-18,-3.2%
CCOc1ccc(Br)c(C2(O)CC(C)N(C)CC2C)c1 (configuration not stated),-8%,-3%,-3,-0.5%
Cc1cc(C)c(C(=O)CN2CCOCC2)c(C)c1,7%,13%,0,-0.7%

# (continued)
SMILES,Rango dissoc inh,miR-21 reporter,GLA inh pH 4.5,Rango-impB inh
COc1cc2[nH]c(=O)n(-c3ccc(C)cc3)c(=O)c2cc1OC,-10%,-15%&-9%,9,2.6%
NCCc1cc(O)c(O)cc1O,?,/,2,?
CC(=O)N1CC(=O)Nc2ccc(C)cc2C1c1ccccc1 (configuration not stated),-15%,-8%,/,-2.0%
CC1CN=C(Nc2ccc(N(C)C)cc2)S1 (configuration not stated),13%,-24%,6,-2.5%
COc1ccc(N2C(=O)CC(N3CC=C(c4ccccc4)CC3)C2=O)cc1 (configuration not stated),-17%,-12%,-4,0.2%
COCCCn1c(-c2ccc(OC)cc2)cc(C(=O)NC2CCCCCCC2)c1C,1%,5%,-7,?
O=c1[nH]c(=O)n(-c2cccc(Cl)c2)c(O)c1C=NCCN1CCCCC1,11%,-4%,-2,-2.3%
COc1ccc(-n2c(O)c(C=NCc3ccc4c(c3)OCO4)c(=O)[nH]c2=O)cc1,-11%,-2%,-1,0.9%
O=C(Cc1ccccc1)N1CCN(C/C=C/c2ccccc2)CC1,-1%,-5%,0,-4.6%
COCC(C)OC(=O)c1c(N)n(Cc2ccco2)c2nc3ccccc3nc12 (configuration not stated),?,-5%,?,?
Nc1cc(Cl)cc(C(=O)O)c1Cl,0%,/,/,-4.2%
CC(=O)c1cn(CCCOc2ccccc2)c2ccccc12,12%,9%,8,-1.8%
C[C@]12C=CC(=O)C=C1CC[C@@H]1C2=CC[C@]2(C)[C@@H](C(=O)CN3CCN(c4cc(N5CCCC5)nc(N5CCCC5)n4)CC3)CC[C@@H]12,?,/,/,?
CCOC(=O)Cn1cc([N+](=O)[O-])nc1[N+](=O)[O-],-1%,3%,-7,0.7%
CCOc1cc2c(cc1OCC)-n1cccc1C(c1ccc(C)cc1C)NC2 (configuration not stated),-16%,14%,/,3.9%
CC(C)C12CN3CCN(CC(C3)C1O)C2 (configuration not stated),-5%,-2%,-2,0.4%
CN1C(=O)NC(=O)[C@]2(Cc3ccccc3N3CCN(c4ccccc4)CC32)C1=O (some centres not stated),2%,-30%,-15,-1.1%
CC(C)COC(=O)c1ccccc1C(=O)OCC(C)C,-12%,-1%,0,2.9%
C[N+]1(C)C2CCC1CC(OC(=O)C(CO)c1ccccc1)C2 (configuration not stated),15%,-1%,8&-4,-0.7%
N[C@@H](CCl)C(=O)O,3%,/,1,-1.9%
N#CCCn1cc(C(=O)NCc2ccccc2)c(-c2ccccc2)n1,0%,6%,4,-4.7%
C[C@@H]1C[C@@H]2O[C@H]2/C=C\C=C\C(=O)Cc2c(Cl)c(O)cc(O)c2C(=O)O1,-5%,?,1,?
CCC(=O)O[C@@H]1[C@@H](OC(C)=O)[C@@]2(O)C(C[C@H](O)C2(C)C)[C@](C)(O)[C@H]2CC[C@@H]3[C@@H](O)[C@]12C[C@@]3(C)O (some centres not stated),16%,-3%,-7,4.5%
O=[N+]([O-])c1ccc(N2CCNCC2)c2ncccc12,/,-9%,-10,/
CCOC(=O)c1c(C=O)c2ccccc2n1Cc1ccccc1F,16%,8%,/,-0.2%

# The list is partial; the hit share may differ from the screen's.
